Source: PubChem BioAssay (several laboratories)
MLL AF4-AF9 inh: blocks AF4 peptide binding to human AF9. P42568. AlphaScreen, biotin-AF4 peptide binding to FLAG-AF9. inhibition, % at 10 µM. 350,000 compounds, 0.47% hits. AID 651704;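 active = every replicate reaching a set inhibition limit, whatever the replicate mean, cut at about 25% in these data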;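 also: 0% = plate neutral control median and 100% = total signal loss; the record names both 10 and 1 µM as test concentration; the first replicate is given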
A1 inh: inhibitors of the anti-apoptotic protein A1, read as caspase activation; MEF A1-2A-BIM cells, Caspase-Glo 3/7 luminescence, 3 h; percent of clofoctol response, vehicle zero; caspase activation, % (no concentration beside the values); 330,000 compounds, 0.066% hits; AID 2462;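 active = over half of replicate activation scores above 10%, or exactly half above 10 with the replicate mean above 10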;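 also: wells of about 30 µL received 50 nL stock; many hits fall short of the cut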
Ecoli rRNA inh: inhibits bacterial ribosomal RNA function over humanized ribosomes | 350,000 compounds, 1.6% hits | E. coli WT GFP vs humanized-ribosome RFP mutants, fluorescence, 24 h; active compounds read low; DMSO median 0, no signal -100 | AID 720706 | GFP signal change (wild-type ribosome), % (concentration not given with the values);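 active = significant combined selectivity score with lowered wild-type GFP, culture density cut under 30%, mutant RFP and density less affected; inactive = any of these conditions unmet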; also: one replicate is shown; some compounds called inactive have numbers as strong as hits
Beta apoptosis: blocks beta cell apoptosis | INS-1E cytokine-induced death, ATP luminescence, 48 h; percent of positive-control rescue, neutral wells zero | protection from apoptosis, % (no concentration beside the values) | 300,000 compounds, 0.8% hits;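 active = all replicates at 75% or more, or half of them and the mean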;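 also: 0% = cytokine-treated negative control wells and 100% = positive control rescue; higher means more ATP so stronger rescue from cytokine killing; wells of about 40 µL received 100 nL stock; the first replicate is given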
T cruzi repl: blocks replication of Trypanosoma cruzi; T. cruzi beta-gal in NIH3T3, luminescence, 90 h; 300,000 compounds, 1.4% hits; inhibition, % (no concentration beside the values); AID 1885;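 active = mean inhibition across valid replicates above about 55%, limit read from the data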;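 also: signal also drops with host cell toxicity which is not excluded here; 0% = plate median of DMSO wells and 100% = zero luminescence signal; higher percent means less beta-gal luminescence so fewer parasites; stock transfer was 50 nL into about 50 µL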
Ecoli growth: E. coli growth inhibition | AID 1053175 | 330,000 compounds, 0.21% hits | OD600 absorbance (test concentration not listed) | Escherichia coli growth, OD600, 23 h; active compounds read low;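 active = OD600 absorbance below the run mean of sample wells minus 3.6 SD, in any replicate, cut at about 0.56 in these data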;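 also: stock transfer was 300 nL into about 60 µL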
UCH37 DUB inh: blocks the human deubiquitinase UCH37; Q9Y5K5; 330,000 compounds, 0.33% hits; purified proteasome/UCH37, Ub-AMC cleavage fluorescence; AID 588478; inhibition, % (test concentration not listed);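 active = mean of two replicates above 20%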;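 also: 0% = compound-free wells with enzyme and 100% = wells lacking proteasome; stock transfer was 100 nL into about 20 µL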
Target sequence (Q9Y5K5 whole entry, looked up): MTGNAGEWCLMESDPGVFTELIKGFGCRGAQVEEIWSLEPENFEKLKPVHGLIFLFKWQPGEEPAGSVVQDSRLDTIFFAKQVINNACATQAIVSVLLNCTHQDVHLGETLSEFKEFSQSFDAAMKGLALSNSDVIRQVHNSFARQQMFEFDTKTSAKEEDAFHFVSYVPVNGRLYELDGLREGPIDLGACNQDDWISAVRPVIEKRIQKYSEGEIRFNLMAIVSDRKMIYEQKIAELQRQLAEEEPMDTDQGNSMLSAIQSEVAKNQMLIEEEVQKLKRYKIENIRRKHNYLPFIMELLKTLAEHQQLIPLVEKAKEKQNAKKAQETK
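assay system = human UCH37 enzyme supplied as purified proteasome complex | amount = proteasome at 0.15 nM in the dispensed enzyme solution | schedule = 30 min compound-proteasome preincubation then 25 min substrate reaction, room temperature | measured by = fluorescence, ex 355 nm, em 460 nm | benchmarks = no-proteasome wells (full inhibition) and compound-free wells (no inhibition)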
FGF22 binding: binders of recombinant human FGF22 by thermal shift; SYPRO orange fluorescence; percent of sucrose octasulfate shift, DMSO zero; calls only at 9.99 µM; 340,000 compounds, 1.5% hits; Q9HCT0;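 active = melting point raised past a set limit in the mean and every replicate; three in four hits are not shown here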
Target sequence (Q9HCT0 whole entry, looked up): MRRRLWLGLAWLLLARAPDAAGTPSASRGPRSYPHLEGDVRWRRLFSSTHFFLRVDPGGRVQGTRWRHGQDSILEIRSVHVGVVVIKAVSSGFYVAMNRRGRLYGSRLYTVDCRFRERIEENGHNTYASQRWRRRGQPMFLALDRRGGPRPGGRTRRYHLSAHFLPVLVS
Ecoli rRNA inh OD600: recorded beside Ecoli rRNA inh, whose call it bears; OD600 change, %; measured here: OD600 growth;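 optical density of the mix in the first replicate; 0 = DMSO median and -100 = no signal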
Ecoli rRNA inh RFP: further read-out of Ecoli rRNA inh, marked with its call; RFP signal change, %; measured here: RFP humanized mutant strains;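 first replicate; 0 = DMSO median and -100 = no signal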
The depositor's hits bear a star; i = inactive; · = no result given; & = joins results of further samples.

nr | compound | MLL AF4-AF9 inh | A1 inh | Ecoli rRNA inh | Ecoli rRNA inh OD600 | Ecoli rRNA inh RFP
1 | S=C(NN=C(C1CC1)C1CC1)Nc1ccccc1 | · | 0.1 | · | · | ·
2 | Cc1c(Br)c(C(F)(F)F)nn1CC(=O)NCc1ccco1 | 1.5 | 0.3 | 3.3 | -2.6 | 1.1
3 | COC(=O)C1=C(C(=O)OC)C(c2cc(Cl)ccc2O)c2sc(=O)[nH]c2S1 (stereo not given) | · | -0.3 | · | · | ·
4 | Cc1ccc(S(=O)(=O)Cc2ccc(C(=O)O)o2)cc1 | -0.5 | 0.9 | 15.4 | 15.7 | 9.4
5 | COc1ccc(C(CNC(=O)CCNS(=O)(=O)c2ccc(Br)cc2)N2CCCC2)cc1 (stereo not given) | -0.2 | · | 0.5 | -0.2 | 2.9
6 | C/C(Cc1nnn(-c2cc(C)on2)n1)=N\O | -1.2 | 1.3 | 19.2 | 14.9 | 5.3
7 | C=C(C)c1cccc(C(C)(C)NC(=O)Nc2cccnc2)c1 | -2.3 | 0.7 | -7.2 | -2.0 | -7.7
8 | COc1cccc(CNc2cccc3cccnc23)c1O | · | -0.1 | · | · | ·
9 | C/C(=N/NS(=O)(=O)c1ccc(C)cc1)c1c[nH]c2ccccc12 | 0.8 | 0.9 | -0.1 | -2.1 | -1.5
10 | Cc1ccc(/C(N)=N/OC(=O)c2cccc(Cn3cc(C(F)(F)F)ccc3=O)c2)cc1 | · | 0.4 | 15.2 | 21.0 | 2.2
11 | COc1ccc(C(C)=O)cc1CSc1nnc(-c2ccc(Cl)cc2)n1-c1ccccc1 | · | 2.1 | · | · | ·
12 | Cc1nnc(SCc2nc(N)nc(Nc3ccccc3)n2)s1 | · | -0.8 | · | · | ·
13 | Cc1cc(C)n(-c2nnc(C)n2NS(C)(=O)=O)n1 | · | 0.3 | · | · | ·
14 | Cn1c(SCc2ccc(C#N)cc2)nnc1-c1ccccc1 | · | 2.5 | 4.1 | 0.9 | -3.7
15 | O=C(OCCc1cc2ccccc2c(=O)o1)c1ccco1 | -0.6 | 1.0 | -0.7 | -19.8 | -10.4

nr | Beta apoptosis | T cruzi repl | Ecoli growth | UCH37 DUB inh | FGF22 binding
1 | -0.3 | -9.3 | 0.675 | 2.1 | ·
2 | 3.8 | 7.0 | 0.654 | -0.6 | i
3 | -4.4 | · | 0.724 | 2.5 | ·
4 | · | -15.8 | 0.649 | -1.3 | i
5 | · | · | 0.668 | -0.2 | i
6 | -0.8 | -9.0 | · | · | i
7 | -8.2 | -9.6 | 0.671 | 4.6 | i
8 | 14.1 | 13.0 | 0.704 | 4.1 | ·
9 | -11.3 | 3.1 | · | · | i
10 | 99.0* | 16.9 | 0.7 | 6.1 | i
11 | 6.7 | 42.6 | 0.714 | 1.7 | ·
12 | -4.6 | 0.7 | 0.696 | 0.4 | ·
13 | -0.1 | -15.0 | 0.712 | 1.4 | ·
14 | -0.1 | -26.9 | 0.598 | 3.4 | ·
15 | -1.4 | · | 0.671 | 1.8 | i

Remaining list, next part.
nr | compound | MLL AF4-AF9 inh | A1 inh | Ecoli rRNA inh | Ecoli rRNA inh OD600 | Ecoli rRNA inh RFP
16 | O=C(COc1coc(CN2CCc3ccccc3C2)cc1=O)Nc1ccc(F)cc1F | -0.8 | 0.5 | 5.3 | 14.4 | 0.8
17 | COc1ccccc1N1CCN(C(=O)CCn2c(=O)[nH]c3ccsc3c2=O)CC1 | · | -0.8 | · | · | ·
18 | Cc1ccc(CN2C(=O)CCC2C(=O)NCC2CCCO2)cc1 (stereo not given) | · | -0.3 | · | · | ·
19 | O=C(CC1SC(=O)N(Cc2ccccc2Cl)C1=O)Nc1nccs1 (stereo not given) | -2.8 | 0.1 | -21.7* | -14.8* | -2.4*
20 | COc1ccccc1N1CCN(C(=O)/C=C/c2c(Cl)nc3ccccn23)CC1 | -0.5 | 0.4 | -9.9 | -11.4 | -0.2
21 | COCCCN1C(=O)c2ccc(C(=O)NCc3ccccn3)cc2C1=O | -3.5 | -0.3 | 5.3 | -0.3 | -3.9
22 | CCc1ccc(OCC(=O)NNC(=O)c2c(CC)noc2C)cc1 | -0.4 | -0.1 | -1.1 | -3.7 | 1.8
23 | CN(Cc1ccc(Cl)cc1Cl)C(=O)CN1C(=O)NC2(CCCC2)C1=O | -0.9 | -0.4 | -8.6 | -12.4 | -3.6
24 | C/C(N)=C(/C#N)C(=O)CSc1nnc(Cc2ccccc2F)n1N | -2.2 | 0.4 | 7.6 | 18.7 | 5.6
25 | CC1CCN(C(=O)CSc2nnc(-c3ccncc3)n2C)CC1 | · | 0.1 | · | · | ·

nr | Beta apoptosis | T cruzi repl | Ecoli growth | UCH37 DUB inh | FGF22 binding
16 | · | 24.7 | 0.632 | 2.9 | ·
17 | 6.8 | -2.6 | 0.67 | 3.8 | ·
18 | -7.3 | -0.4 | 0.773 | -3.4 | ·
19 | 0.9 | 14.1 | 0.651 | 0.6 | i
20 | -2.0 | 12.8 | 0.727 | 5.1 | i
21 | 1.5 | -10.8 | 0.665 | 4.5 | i
22 | · | -9.4 | 0.658 | 5.2 | i
23 | -1.7 | -7.5 | 0.677 | 6.5 | i
24 | -2.9 | 5.9 | 0.669&0.71 | 1.5&0.2 | i
25 | 1.6 | -6.3 | 0.702 | 2.9 | ·

Gathered by group, the compounds so far containing an aryl thioether with sulfur outside any ring.
nr | compound | MLL AF4-AF9 inh | A1 inh | Ecoli rRNA inh | Ecoli rRNA inh OD600 | Ecoli rRNA inh RFP
11 | COc1ccc(C(C)=O)cc1CSc1nnc(-c2ccc(Cl)cc2)n1-c1ccccc1 | · | 2.1 | · | · | ·
12 | Cc1nnc(SCc2nc(N)nc(Nc3ccccc3)n2)s1 | · | -0.8 | · | · | ·
14 | Cn1c(SCc2ccc(C#N)cc2)nnc1-c1ccccc1 | · | 2.5 | 4.1 | 0.9 | -3.7
24 | C/C(N)=C(/C#N)C(=O)CSc1nnc(Cc2ccccc2F)n1N | -2.2 | 0.4 | 7.6 | 18.7 | 5.6
25 | CC1CCN(C(=O)CSc2nnc(-c3ccncc3)n2C)CC1 | · | 0.1 | · | · | ·

nr | Beta apoptosis | T cruzi repl | Ecoli growth | UCH37 DUB inh | FGF22 binding
11 | 6.7 | 42.6 | 0.714 | 1.7 | ·
12 | -4.6 | 0.7 | 0.696 | 0.4 | ·
14 | -0.1 | -26.9 | 0.598 | 3.4 | ·
24 | -2.9 | 5.9 | 0.669&0.71 | 1.5&0.2 | i
25 | 1.6 | -6.3 | 0.702 | 2.9 | ·

Compounds listed so far with a CF3 group:
nr | compound | MLL AF4-AF9 inh | A1 inh | Ecoli rRNA inh | Ecoli rRNA inh OD600 | Ecoli rRNA inh RFP
2 | Cc1c(Br)c(C(F)(F)F)nn1CC(=O)NCc1ccco1 | 1.5 | 0.3 | 3.3 | -2.6 | 1.1
10 | Cc1ccc(/C(N)=N/OC(=O)c2cccc(Cn3cc(C(F)(F)F)ccc3=O)c2)cc1 | · | 0.4 | 15.2 | 21.0 | 2.2

nr | Beta apoptosis | T cruzi repl | Ecoli growth | UCH37 DUB inh | FGF22 binding
2 | 3.8 | 7.0 | 0.654 | -0.6 | i
10 | 99.0* | 16.9 | 0.7 | 6.1 | i

Some of the compounds tested; rates above refer to the full screens.
